2A firefly: lowers the firefly signal of an FMDV 2A StopGo reporter. HEK cells with a luciferase reporter of 2A StopGo recoding. Potency, µM (highest dose often 57.5 µM), inactives show at the top dose signal change, negative = less light. 120,000 tested, 0.23% active. AID 1745856; active = well fitted falling curve with a large enough effect; inconclusive = small, poorly fitted or top-dose-only effect; inactive = no such curve, though single readings can be large or run the other way; further: nearly all actives have a fitted effect of over 60% in size; overnight with compound
StopGo RLuc: FMDV 2A StopGo reporter, Renilla signal; Potency, µM (highest dose often 57.5 µM), for inactives: top-dose signal change, negative = less light; 120,000 tested, 0.32% active; HEK cells with a luciferase reporter of 2A StopGo recoding; AID 1745857; active means well fitted falling curve with a large enough effect; inconclusive means small, poorly fitted or top-dose-only effect; inactive means no such curve, though single readings can be large or run the other way; further: nearly all actives have a fitted effect of over 55% in size; overnight with compound
Starred values were filed as active, the others as inactive; ? = inconclusive; & = joins results of further samples; [ ] = dose if it differs, or a comment. On the % scale 0 is the no-effect control and ±100 the full control effect; potency means the concentration at half of the fitted maximal effect. An excerpt, so the mix of outcomes need not match the whole.

SMILES	2A firefly	StopGo RLuc
COc1ccc(-c2nc(NCCCN3CCCCC3C)c3ccccc3n2)cc1 (centres undefined)	26%	0%
CCOc1ccccc1C(=O)N1CCc2cc(OC)c(OC)cc2C1COc1ccc2c(C)cc(=O)oc2c1 (centres undefined)	-19%	4%
CCCCOc1ccccc1C(=O)N(Cc1ccc(C)o1)C1CCS(=O)(=O)C1 (centres undefined)	?	30%[activator]
O=C(NCCc1ccccc1)c1nc(-c2ccc(Cl)cc2)n2c1CCCCC2	-14%	-12%
COc1ccc(-c2nc(-c3ccc(S(=O)(=O)N4CCCC4)cc3)cs2)cc1	0%	2%
Cc1cccc(-n2ncc3c(NNC(=O)C4CCCCC4)ncnc32)c1	29%	16%
O=S(=O)(NCCc1csc2nc(-c3ccccc3)nn12)c1cc(Cl)ccc1Cl	11%	242%[activator]
CCc1nc2ccc(C(=O)N3CCN(c4ccccc4F)CC3)cc2nc1CC	-8%	119%[activator]
NC(N)=N/N=C/C(Br)=C/c1ccccc1	10%	-24%
COc1cc(NC(=O)Nc2ccc(F)cc2F)c(OC)cc1Cl	42%[activator]	-20%
O=C(OCc1ccccc1)c1cc2ccccc2[nH]1	127%[activator]	-6%[1.06 µM]
Cc1noc(C)c1COc1cccc(C(=O)N[C@@H](Cc2ccccc2)c2nc3ccccc3[nH]2)c1	11%	65%[activator]
CCN(CCC(=O)OC)C(=O)CCCOc1cccc(C(C)=O)c1	-11%	0%
N#Cc1ccccc1Cn1c(=O)n(-c2cccc(C(F)(F)F)c2)c(=O)c2sccc21	0%	0%
O=C(Nc1ncn[nH]1)C1CC(=O)N(c2ccccc2)C1 (centres undefined)	3%	-2%
Cc1ccccc1CN1C(=O)c2ccccc2Sc2ccc(C(=O)O)cc21	0%	14%
COc1ccc(OC)c(NC(=O)Cn2c(=O)n(Cc3ccco3)c(=O)c3cc(OC)c(OC)cc32)c1	7%	-2%
CC(C)(C)OC(=O)N1CCC(c2c(C(=O)NCc3cccs3)cnn2-c2ccc(F)cc2F)CC1	23%	71%[activator]
CC(=O)N1CCN(CC(=O)Nc2c(C#N)c(C)c(C)n2C2CCCC2)CC1	-10%	-12%
Cc1oc2ncnc(N3CCCCC3)c2c1C(=O)N1CCN(c2ccc(Cl)cc2)CC1	-9%	-14%
CCOc1ccc(-c2[nH]ncc2-c2ccc(Br)cc2)c(O)c1	7%	12%
Cc1cc(C(=O)N2CCN(c3cc(Cl)ccc3C)CC2)c2c(C)nn(-c3ccccc3)c2n1	-2%	-13%
O=C(Cn1nc(N2CCN(c3ccccc3)CC2)ccc1=O)NC1CCCC1	-3%	-13%
COc1ccc(S(=O)(=O)Nc2ccc3oc(C)c(C(=O)O)c3c2)cc1	35%[activator]	108%[activator]

Quoted from the listing.
StopGo RLuc result of CCOc1ccc(-c2[nH]ncc2-c2ccc(Br)cc2)c(O)c1 reads 12%
2A firefly result of O=C(Cn1nc(N2CCN(c3ccccc3)CC2)ccc1=O)NC1CCCC1 reads -3%
2A firefly result of O=S(=O)(NCCc1csc2nc(-c3ccccc3)nn12)c1cc(Cl)ccc1Cl reads 11%
2A firefly result of COc1ccc(-c2nc(-c3ccc(S(=O)(=O)N4CCCC4)cc3)cs2)cc1 reads 0%
2A firefly result of COc1cc(NC(=O)Nc2ccc(F)cc2F)c(OC)cc1Cl reads 42%[activator]

(more compounds)
SMILES	2A firefly	StopGo RLuc
CCC1CCC/C1=N\NC(=O)CCC(=O)Nc1ccccc1Cl (centres undefined)	0%	-5%
COc1cccc(OC)c1C(=O)Nc1nc2c(s1)CCc1ccccc1-2	-13%	4%
CCC(C)NC(=O)c1ccccc1NC(=O)c1cnc2ccccc2n1 (centres undefined)	24%	2%
O=C(C1CCN(c2ncnc3c2nc2n3CCCCC2)CC1)N1CCN(c2ccccc2)CC1	?	?
COc1ccc2cnn(CC(=O)Nc3cccc4ccccc34)c(=O)c2c1OC	5%	1%
Cc1nc(-c2cccnc2)sc1CCNS(=O)(=O)c1cccs1	18%	131%[activator]
COc1ccccc1NC(=O)CSc1oc(-c2ccco2)nc1S(=O)(=O)c1ccc(Br)cc1	21%	?
COC(=O)c1c(C)sc(-c2c(-c3ccc4c(c3)OCCO4)[nH]c3c2c(=O)[nH]c(=O)n3C)c1O	-13%	-12%
Cc1ccc(OCc2ccc(-c3nc(C#N)c(N4CCC(C(N)=O)CC4)o3)o2)cc1C	16%	5%
COCCCNC(=O)C1CCN(C(=O)c2cc3sccc3n2Cc2ccc(Cl)cc2)CC1	-30%	-27%
Cc1cccc(NC(=O)c2ccc3c(c2)NC(=O)C2CCCN32)c1 (centres undefined)	196%[activator]	-1%
Cc1ccc(Cl)cc1NC(=O)CCNS(=O)(=O)/C=C/c1ccccc1	8%	111%[activator]

Sorted by heavy-atom count (smallest number first): 4 of the compounds above.
SMILES	2A firefly	StopGo RLuc
CCC1CCC/C1=N\NC(=O)CCC(=O)Nc1ccccc1Cl (centres undefined)	0%	-5%
CCC(C)NC(=O)c1ccccc1NC(=O)c1cnc2ccccc2n1 (centres undefined)	24%	2%
COc1ccc2cnn(CC(=O)Nc3cccc4ccccc34)c(=O)c2c1OC	5%	1%
COc1ccccc1NC(=O)CSc1oc(-c2ccco2)nc1S(=O)(=O)c1ccc(Br)cc1	21%	?

Following part
SMILES	2A firefly	StopGo RLuc
O=C(NNC(=O)C1CC=CCC1)c1ccc(F)cc1 (centres undefined)	112%[activator]	24%
c1ccc(CSc2nnc(C3CCNCC3)o2)cc1	-2%	5%
Cc1c(Cl)cccc1-c1ccc(C(=O)Nc2ccc(F)cc2)o1	111%[activator]	8%
COc1ccc(-c2noc(N(c3nc(-c4ccc(OC)c(OC)c4)no3)c3ccccc3OC)n2)cc1OC	54%[activator]	-9%
Cc1ncc(-c2ccc(S(=O)(=O)Nc3ccccc3F)cc2)o1	18%	110%[activator]
O=C(O)CNS(=O)(=O)c1ccc(Cl)c(C(F)(F)F)c1	-7%	0%
COc1ccc(Cl)cc1NC(=O)NCc1noc2ccccc12	15%	47%[activator]
Cc1nc2sccn2c(=O)c1S(=O)(=O)Nc1ccc(N2CCN(C)CC2)cc1	-12%	-8%
CCOC(=O)c1c(C)[nH]c(CCC(=O)NCCCN2CCN(c3cccc(Cl)c3)CC2)c1C	-22%	-18%
CCc1cccc2c(C(=O)CSc3nncn3C(C)C)c[nH]c12	0%	9%
CC(C)(C)C(=O)N1CCC(C(=O)N2CCN(c3ccccc3F)CC2)CC1	-5%	-8%
Cc1cc(C)cc(OC(=O)c2cnc(C)cn2)c1	12%	-5%

Record cards (already shown).
Listed for COc1ccc(Cl)cc1NC(=O)NCc1noc2ccccc12 = 2A firefly: 15%; StopGo RLuc: 47%[activator]
Listed for c1ccc(CSc2nnc(C3CCNCC3)o2)cc1 = 2A firefly: -2%; StopGo RLuc: 5%

Next results.
SMILES	2A firefly	StopGo RLuc
COc1ccc(-c2c(C)oc3cc(OCCN4CCCCC4)ccc3c2=O)cc1OC	1%	-5%
COc1cccc(NC(=O)NOCc2ccccc2)c1	0%	27%
CCOC(=O)C(NC(=O)COc1cc(C)cc(C)c1)C(=O)OCC	-3%	5%
O=S(=O)(c1ccc(F)cc1)N1CCN(Cc2cccc3cccnc23)CC1	-2%	-13%
Cc1ccccc1NC(=O)CC1(C(=O)O)CCCCC1	8%	-3%
CCC1CN(C(=O)N2CCC(C(=O)NCc3ccco3)CC2)c2cc(C)ccc2O1 (centres undefined)	?	-9%
O=C(CSc1ccc2ccccc2n1)Nc1ccc2c(c1)OCCCO2	132%[activator]	0%[1.06 µM]
Cc1cccc(OCc2ccc(-c3nc(C#N)c(NCCN(C)C)o3)o2)c1	0%	1%
COc1cc(C2C(C(=O)OCC(C)C)=C(C)N=C3SCCC(=O)N32)ccc1OCc1ccccc1 (centres undefined)	-15%	4%
C[C@@H]1C[C@H]2[C@@H]3C[C@H](F)C4=CC(=O)C=C[C@]4(C)[C@@]3(F)[C@@H](O)C[C@]2(C)[C@@]1(O)C(=O)CO	16%	15%
COc1ccc(-c2cn3nc(N4CCCC(C(=O)Nc5cc(Cl)ccc5OC)C4)sc3n2)cc1 (centres undefined)	-3%	-10%
Fc1ccccc1CNC(=S)NCCc1ccccc1	168%[activator]	27%[1.06 µM]

Grouped by structure, those above with a CF3 group
SMILES	2A firefly	StopGo RLuc
N#Cc1ccccc1Cn1c(=O)n(-c2cccc(C(F)(F)F)c2)c(=O)c2sccc21	0%	0%
O=C(O)CNS(=O)(=O)c1ccc(Cl)c(C(F)(F)F)c1	-7%	0%

Later entries.
SMILES	2A firefly	StopGo RLuc
CC(OC(=O)c1cc(=O)c2ccccc2o1)C(=O)Nc1ccc(C(F)(F)F)cc1 (centres undefined)	-3%	-15%
O=C(CN(Cc1ccco1)S(=O)(=O)c1ccccc1)N1CCN(C(=O)c2cccs2)CC1	18%	17%
Cc1cccc(-c2ocnc2C(=O)NCCc2ccccc2C)c1	74%[activator]	10%
C=CCOc1ccccc1NC(=O)c1cccc(C)c1	34%[activator]	2%
C#CCNC(=O)CNC(=O)CCc1ncc(-c2ccccc2)o1	0%	-1%
Cn1nc(CC(=O)N(Cc2ccc(F)cc2)C2CC2)c2ccccc2c1=O	-1%	-5%
COc1ccccc1N1CCN(C(=O)COc2ccccc2C#N)CC1	6%	3%
Cc1ccc(C)c(CN2C(=O)C3(c4ccccc42)N(c2ccc(Cl)cc2)C(=O)CS3(=O)=O)c1 (centres undefined)	2%	-8%
COC(=O)c1sc(=S)n(-c2ccc(Br)cc2)c1N	53%[activator]	141%[activator]
CC(C)NC(=O)C(=O)Nc1sc2c(c1C#N)CC(C)(C)OC2	153%[activator]	15%
Clc1cc(Cl)c(N/N=C/c2ccc(Br)cc2)c(Cl)c1	9%	11%
CCOc1ccc(CCNC(=O)c2cnc3sc(N4CCCCC4)nn3c2=O)cc1	-3%	-3%
Cc1ccccc1-c1nc(C#N)c(NCCCN(C)C)o1	22%	33%
CCCCC(=O)Nc1cc(-c2nc3cccnc3s2)ccc1C	84%[activator]	-8%
Oc1ccc(Cl)cc1C=NCc1ccc(F)c(Cl)c1	14%	-9%
Cc1ccccc1-c1nc(S(=O)(=O)c2ccc(F)cc2)c(N(C)C)o1	6%	103%[activator]
C=CCc1cc(/C=C(/C#N)c2nc3cc(C)c(C)cc3[nH]2)cc(OC)c1OC	21%	0%
O=C(NCC(O)c1ccccc1C(F)(F)F)c1cccnc1 (centres undefined)	4%	-6%
CC(=O)N1CCCc2ccc(NS(=O)(=O)c3cccc(Cl)c3)cc21	4%	1%
Cc1ccc(Cl)c(OC(C)C(=O)NN)c1 (centres undefined)	15%	28%
CCN(CC)c1ccc(NC(=O)CN2CCN(c3ccccc3F)CC2)cc1	-7%	-2%
CSc1cccc(NC(=O)C2CCCN(C(=O)c3cnn(-c4ccc(F)cc4)c3-n3cccc3)C2)c1 (centres undefined)	-36%	-25%
C/C(=N\NC(=O)c1cccc(C)c1)c1ccc(-c2ccccc2)cc1	103%[activator]	15%
Cc1nc(NC2CCCC2)sc1C(=O)NCc1ccncc1	7%	-15%
COc1ccc(-c2cc(C(F)(F)F)nc(S(=O)(=O)CCC(=O)Nc3ccc(C)cc3)n2)cc1	-15%	?
Cc1nnc(NC(=O)CSc2nccn2-c2ccc(Cl)cc2)s1	1%&9%	-1%&4%
CC(=O)O[C@]1(C(C)=O)CC[C@H]2[C@@H]3C[C@H](C)C4=CC(=O)CC[C@]4(C)[C@H]3CC[C@@]21C	-8%	10%
CCOc1ccc2nc(N3CCCC(C(=O)NCc4ccc(OC)cc4)C3)sc2c1 (centres undefined)	114%[activator]	14%
CCCCOCCCNC(=O)CCC(=O)NCCC1=CCCCC1	-8%	-3%
Cn1nc(-c2ccc(NC3CCCCC3)c([N+](=O)[O-])c2)c2ccccc2c1=O	4%	-2%
COc1ccc(-c2c(C)c3ccc(O)cc3oc2=O)cc1OC	?	-55%
Cc1ccc(OC(=O)c2cc(-c3ccccc3)nc3ccc(C)cc23)cc1	3%	-2%
Cc1nn(-c2ccc(F)cc2)c(-n2cccc2)c1C(=O)N1CCc2ccccc2C1	-3%	6%
CCC1CCCCN1C(=O)CSc1nc2ccccc2n1CCC#N (centres undefined)	-9%	-19%
CCOC(=O)c1c(COc2ccc(C)nc2[N+](=O)[O-])nc2ccccc2c1C	?	?
O=S(=O)(Nc1cccc(-c2ccc(N3CCCCCC3)nn2)c1)c1ccccc1	140%[activator]	132%[activator]
Cc1ccc(C(=O)C(C)OC(=O)c2ccc(Cl)c(N)c2)cc1 (centres undefined)	70%[activator]	13%
CCCNC(=O)c1ccc2c(c1)S(=O)(=O)N=CN2CCC	13%	-3%
COC(=O)c1ccc(NC(=O)CC2C(=O)N(c3ccc(Cl)cc3)C(=O)N2Cc2ccco2)cc1 (centres undefined)	9%	50%[activator]
CC(C)CCNC(=O)c1cccc(C#N)c1	0%	10%
CN(C)C(=O)c1ccc(NC(=O)CC#N)cc1	0%	-5%[1.06 µM]
COc1ccc(C(=O)/C=C/c2cccc(O)c2)cc1	212%[activator]	31%[activator]
COc1ccc(CNCCc2c[nH]c3ccc(OC)cc23)cc1	-2%	-8%
Cc1cc(C)c2oc(-c3cccc(NC(=O)C(C)C)c3C)nc2c1	21%	-1%
O=C(/C=C/c1ccccc1)N1CCCC1	0%	12%
CN(Cc1ccccc1F)C(=O)COC(=O)CCN=C1NS(=O)(=O)c2ccccc21	6%	-1%
COc1ccc(Cl)cc1N(CC(=O)NCc1ccncc1)S(=O)(=O)c1ccc(C)cc1	-1%	220%[activator]
Cc1cccc(N(CC(=O)NCCSCc2ccccc2)S(=O)(=O)c2ccccc2)c1C	?	-1%
